DUX4 inh: blocks DUX4-driven transcriptional activation; 293T-iDUX4 ZSCAN4-Gaussia luciferase reporter, 24 h; active compounds read low; activity change, negative = inhibition, % (no concentration beside the values); 37,000 tested, 0.8% active;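 active means -10% or lower and over 25 points stronger than a control reporter; inconclusive means -10% or lower with a smaller gap; inactive means above -10%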;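 further: 0% = median of neutral control wells and -100% = median of positive control wells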
DUX4 inh difference: also measured in DUX4 inh; calls as there; Gaussia minus Italica difference, %; measured here: selective DUX4 reporter inhibition;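 worked out from the two reporters; negative = selective loss of the DUX4 reporter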
DUX4 inh control: further read-out of DUX4 inh, marked with its call; activity change, negative = inhibition, %; measured here: Italica tet-on control reporter;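 0 = neutral control and -100 = positive control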
An asterisk follows results filed as active; ? = inconclusive; . = no result given; & = joins results of further samples; ! = a repeat was not active. Some of the compounds tested, so the mix of outcomes need not match the whole.

[1] COCC#Cc1ccc([C@@H]2[C@H]3CN(C(=O)Cc4ccccn4)CCCCN3[C@H]2CO)cc1
[2] C[C@@H]1CN([C@H](C)CO)C(=O)CCCn2cc(nn2)CO[C@H]1CN(C)C(=O)Oc1ccc2ccccc2c1
[3] COc1ccc(-c2ccc3n(c2=O)C[C@H]2[C@H](CO)[C@@H](C(=O)O)[C@@H]3N2C(=O)c2ccccc2F)cc1
[4] CCN1[C@@H]2c3ccc(-c4ccc(OC)cc4)c(=O)n3C[C@H]1[C@H](CO)[C@H]2C(=O)OC
[5] COC(=O)[C@@H]1[C@@H](CO)[C@@H]2Cn3c(ccc(-c4ccccc4)c3=O)[C@H]1N2CC1CCCC1
[6] COC(=O)[C@H]1[C@H](CO)[C@H]2Cn3c(cccc3=O)[C@@H]1N2Cc1nccs1

Screen / compound no.	1	2	3	4	5	6
DUX4 inh	21	5	-1	1	1	-4
DUX4 inh difference	18	6	1	-3	-2	-17
DUX4 inh control	3.6	-0.9	-1.8	3.6	3.2	13

[7] C/C=C/c1ccc(C2[C@@H]3CN(C(C)=O)C[C@H]2N3)cc1 (stereo not given in full)
[8] C/C=C/c1ccc(C2[C@@H]3CN(Cc4nccs4)C[C@H]2N3)cc1 (stereo not given in full)
[9] COC(=O)[C@H]1[C@H](CO)[C@H]2Cn3c(cccc3=O)[C@@H]1N2C(=O)C1CCCC1
[10] O=C(Cc1cccnc1)N1CCCCN2[C@H](CO)[C@@H](c3ccc(C#CC4(O)CCCC4)cc3)[C@H]2C1
[11] COC(=O)[C@@H]1[C@@H](CO)[C@@H]2Cn3c(ccc(/C=C/c4ccccc4)c3=O)[C@H]1N2C(=O)C1CCC1
[12] CC=Cc1ccc2n(c1=O)C[C@H]1[C@H](CO)[C@@H](C(=O)OC)[C@@H]2N1S(=O)(=O)c1ccccc1C (mixture of isomers)

Screen / compound no.	7	8	9	10	11	12
DUX4 inh	-21*!	4&-7	3	10	4	-5
DUX4 inh difference	-32*!	7&-5	1	7	6	-4
DUX4 inh control	11*!	-3.3&-2.0	2.3	3.3	-1.7	-1.3

[13] CC=Cc1ccc2n(c1=O)C[C@H]1[C@H](CO)[C@@H](C(=O)OC)[C@@H]2N1CC1CCCC1 (mixture of isomers)
[14] O=C1CNC[C@@H]2[C@H](c3ccc(Br)cc3)[C@@H](CO)N12
[15] COC(=O)[C@H]1[C@H](CO)[C@H]2Cn3c(ccc(C4=CCCC4)c3=O)[C@@H]1N2C(=O)CC1CC1
[16] CCN1[C@@H]2Cn3c(ccc(-c4cccc(C(=O)N(C)C)c4)c3=O)[C@H]1[C@@H](C(=O)OC)[C@@H]2CO
[17] C[C@@H]1CN([C@H](C)CO)C(=O)CCCn2nncc2CO[C@@H]1CN(C)C(=O)Oc1ccc2ccccc2c1
[18] CC=Cc1ccc2n(c1=O)C[C@H]1[C@H](CO)[C@@H](C(=O)OC)[C@@H]2N1CC1CCCCC1 (mixture of isomers)

Screen / compound no.	13	14	15	16	17	18
DUX4 inh	-1	7	?	5	-3	?
DUX4 inh difference	-4	-4	.	1	-6	.
DUX4 inh control	3.7	11	.	3.8	2.7	.

[19] CCCNC(=O)N1[C@@H]2c3ccc(-c4cccc(C(=O)N(C)C)c4)c(=O)n3C[C@H]1[C@H](CO)[C@H]2C(=O)O
[20] COC(=O)[C@H]1[C@H](CO)[C@H]2Cn3c(ccc(-c4ccccc4OC)c3=O)[C@@H]1N2Cc1ccccc1
[21] COc1cccc(CN2CC3(C2)[C@H](c2ccccc2)[C@H](CO)N3C(=O)Cc2ccccc2)c1
[22] COC(=O)[C@H]1[C@H](CO)[C@H]2Cn3c(ccc(/C=C/c4ccccc4)c3=O)[C@@H]1N2Cc1ccccc1F
[23] Cc1ccc(OC(=O)N(C)C[C@H]2OCc3ccccc3-c3c(n(C)c4ccccc34)C(=O)N([C@H](C)CO)C[C@H]2C)cc1
[24] Cc1ccccc1-c1ccc([C@@H]2[C@@H](CO)N3CCCCN(C(=O)Cc4ccccn4)C[C@@H]23)cc1

Screen / compound no.	19	20	21	22	23	24
DUX4 inh	-6	-1	?	?	?	9
DUX4 inh difference	-6	-1	.	.	.	-1
DUX4 inh control	0.3	0.0	.	.	.	9.2

[25] CN(C)CC#Cc1ccc([C@@H]2[C@@H](CO)N3CCCCN(C(=O)Cc4ccccn4)C[C@H]23)cc1
[26] O=C(Cc1ccccn1)N1CCCCN2[C@H](CO)[C@@H](c3ccc(C#Cc4ccccc4)cc3)[C@H]2C1
[27] CCCN1[C@@H]2c3cccc(=O)n3C[C@H]1[C@H](CO)[C@H]2C(=O)N(C)C
[28] C/C=C/c1ccc([C@H]2[C@H](CO)N3CCCCN(C(=O)Cc4cccnc4)C[C@@H]23)cc1
[29] O=C(Cc1cccnc1)N1CCCCN2[C@H](CO)[C@@H](c3ccc(C#CC4(O)CCCC4)cc3)[C@@H]2C1
[30] COC(=O)[C@H]1[C@H](CO)[C@H]2Cn3c(ccc(C4=CCCC4)c3=O)[C@@H]1N2Cc1ccccn1

Screen / compound no.	25	26	27	28	29	30
DUX4 inh	24	-5	6	3	5	3
DUX4 inh difference	21	-19	3	-7	6	3
DUX4 inh control	3.9	14	2.6	10	-0.6	-0.2

[31] COC(=O)[C@H]1[C@H](CO)[C@H]2Cn3c(ccc(C4=CCCCC4)c3=O)[C@@H]1N2CC1CCCC1
[32] COc1ccc(C#Cc2ccc([C@H]3[C@@H](CO)N4CCCCN(C(=O)Cc5cccnc5)C[C@H]34)cc2)cc1
[33] COC(=O)[C@@H]1[C@@H](CO)[C@@H]2Cn3c(ccc(C4=CCCC4)c3=O)[C@H]1N2CC1CCCCC1
[34] O=C(Cc1ccncc1)N1CCCCN2[C@@H](CO)[C@@H](c3ccc(-c4ccncc4)cc3)[C@@H]2C1
[35] C[C@@H]1CN([C@H](C)CO)C(=O)CCCn2cc(nn2)CO[C@@H]1CN(C)C(=O)Oc1ccc2ccccc2c1
[36] C/C=C/c1ccc(C2[C@@H]3CN(Cc4cocn4)C[C@H]2N3)cc1 (stereo not given in full)

Screen / compound no.	31	32	33	34	35	36
DUX4 inh	?	?	1	14	3	2
DUX4 inh difference	.	.	2	4	8	-16
DUX4 inh control	.	.	-2.0	9.9	-5.1	18

[37] O=C(O)[C@@H]1[C@@H](CO)[C@@H]2Cn3c(ccc(-c4ccncc4)c3=O)[C@H]1N2C(=O)C1CC1
[38] COC(=O)[C@@H]1[C@@H](CO)[C@@H]2Cn3c(ccc(C4=CCCCC4)c3=O)[C@H]1N2C(=O)CC1CC1
[39] CCCNC(=O)N1[C@@H]2Cn3c(ccc(-c4ccccc4OC)c3=O)[C@H]1[C@@H](C(=O)O)[C@@H]2CO
[40] COC(=O)[C@@H]1[C@@H](CO)[C@@H]2Cn3c(ccc(-c4ccncc4)c3=O)[C@H]1N2S(=O)(=O)c1ccccc1F
[41] C/C=C/c1ccc(C2[C@@H]3CN(Cc4cccc(F)c4)C[C@H]2N3)cc1 (stereo not given in full)
[42] Cc1cccc(S(=O)(=O)N2[C@@H]3c4ccc(-c5ccc(F)cc5)c(=O)n4C[C@H]2[C@H](CO)[C@H]3C(=O)O)c1

Screen / compound no.	37	38	39	40	41	42
DUX4 inh	-1	2	4	-3	?	6
DUX4 inh difference	0	3	2	-2	-11	9
DUX4 inh control	-1.0	-1.3	2.6	-0.7	10	-3.4

In another format: results already given
Fields – DUX4 inh, DUX4 inh difference, DUX4 inh control
33. COC(=O)[C@@H]1[C@@H](CO)[C@@H]2Cn3c(ccc(C4=CCCC4)c3=O)[C@H]1N2CC1CCCCC1
 : 1, 2, -2.0
34. O=C(Cc1ccncc1)N1CCCCN2[C@@H](CO)[C@@H](c3ccc(-c4ccncc4)cc3)[C@@H]2C1
 : 14, 4, 9.9
35. C[C@@H]1CN([C@H](C)CO)C(=O)CCCn2cc(nn2)CO[C@@H]1CN(C)C(=O)Oc1ccc2ccccc2c1
 : 3, 8, -5.1
36. C/C=C/c1ccc(C2[C@@H]3CN(Cc4cocn4)C[C@H]2N3)cc1 (stereo not given in full)
 : 2, -16, 18
37. O=C(O)[C@@H]1[C@@H](CO)[C@@H]2Cn3c(ccc(-c4ccncc4)c3=O)[C@H]1N2C(=O)C1CC1
 : -1, 0, -1.0
38. COC(=O)[C@@H]1[C@@H](CO)[C@@H]2Cn3c(ccc(C4=CCCCC4)c3=O)[C@H]1N2C(=O)CC1CC1
 : 2, 3, -1.3

The listing continues:
[43] COC(=O)[C@H]1[C@H](CO)[C@H]2Cn3c(ccc(-c4ccc(F)cc4)c3=O)[C@@H]1N2C(C)=O
[44] O=C(Cc1ccccn1)N1CCCCN2[C@@H](CO)[C@H](c3ccc(-c4ccccc4)cc3)[C@@H]2C1
[45] O=C([C@@H]1N[C@@H]2c3cccc(=O)n3C[C@@H]2[C@H]1CO)N1CCCCC1
[46] O=C(O)C[C@@H]1CC[C@H]2NC[C@H](O)COC[C@@H]2O1
[47] C[C@H]1CN([C@@H](C)CO)C(=O)CCCn2cc(nn2)CO[C@@H]1CN(C)C(=O)Oc1cccc2ccccc12
[48] O=C(O)[C@H]1[C@H](CO)[C@H]2Cn3c(ccc(-c4ccncc4)c3=O)[C@@H]1N2C(=O)C1CCC1

Screen / compound no.	43	44	45	46	47	48
DUX4 inh	-4	8	-6	4	-2	-5
DUX4 inh difference	-10	5	-5	1	0	-6
DUX4 inh control	6.8	3.0	-1.0	2.4	-2.4	1.4

Single records, as listed above. Screens in order: DUX4 inh | DUX4 inh difference | DUX4 inh control
`O=C(O)C[C@@H]1CC[C@H]2NC[C@H](O)COC[C@@H]2O1` in the list: 4 | 1 | 2.4
`C[C@H]1CN([C@@H](C)CO)C(=O)CCCn2cc(nn2)CO[C@@H]1CN(C)C(=O)Oc1cccc2ccccc12` in the list: -2 | 0 | -2.4

(list continues)
[49] C[C@H](CO)N1C[C@H](C)[C@H](CN(C)C(=O)Oc2ccc3ccccc3c2)OCc2cnnn2CCCC1=O
[50] Cc1ccc(OC(=O)N(C)C[C@H]2OCc3ccccc3-c3c(n(C)c4ccccc34)C(=O)N([C@H](C)CO)C[C@@H]2C)cc1
[51] CCN1[C@@H]2Cn3c(ccc(-c4cccc(OC)c4)c3=O)[C@H]1[C@@H](C(=O)OC)[C@@H]2CO
[52] C/C=C/c1ccc([C@@H]2[C@H]3CN(C(=O)Cc4cccnc4)CCCCN3[C@H]2CO)cc1
[53] Cc1ccccc1-c1ccc([C@@H]2[C@H]3CN(C(=O)Cc4ccccn4)CCCCN3[C@H]2CO)cc1
[54] C/C=C/c1ccc([C@@H]2[C@@H](CO)N3CCCCN(C(=O)Cc4ccncc4)C[C@@H]23)cc1

Screen / compound no.	49	50	51	52	53	54
DUX4 inh	-6	?	0	17	0	8
DUX4 inh difference	-1	.	-4	18	1	-5
DUX4 inh control	-5.2	.	3.4	-0.8	-0.8	13

Reprinted from the part before: 4 entries, then new ones.
[51] CCN1[C@@H]2Cn3c(ccc(-c4cccc(OC)c4)c3=O)[C@H]1[C@@H](C(=O)OC)[C@@H]2CO
[52] C/C=C/c1ccc([C@@H]2[C@H]3CN(C(=O)Cc4cccnc4)CCCCN3[C@H]2CO)cc1
[53] Cc1ccccc1-c1ccc([C@@H]2[C@H]3CN(C(=O)Cc4ccccn4)CCCCN3[C@H]2CO)cc1
[54] C/C=C/c1ccc([C@@H]2[C@@H](CO)N3CCCCN(C(=O)Cc4ccncc4)C[C@@H]23)cc1
[55] COCC#Cc1ccc([C@@H]2[C@@H](CO)N3CCCCN(C(=O)Cc4ccccn4)C[C@@H]23)cc1
[56] OC[C@@H]1Nc2ccc(C#Cc3cccnc3)cc2[C@@H]2NCC[C@H]12
[57] CCCN1[C@@H]2c3ccc(-c4ccccc4)c(=O)n3C[C@H]1[C@H](CO)[C@H]2C(=O)OC
[58] COC(=O)[C@H]1[C@H](CO)[C@H]2Cn3c(ccc(C4=CCCC4)c3=O)[C@@H]1N2CC1CCCCC1
[59] COC(=O)[C@@H]1[C@@H](CO)[C@@H]2Cn3c(ccc(/C=C/c4ccccc4)c3=O)[C@H]1N2CC1CCCC1
[60] Cc1ccccc1-c1ccc([C@H]2[C@H]3CN(C(=O)Cc4ccccn4)CCCCN3[C@H]2CO)cc1

Screen / compound no.	51	52	53	54	55	56	57	58	59	60
DUX4 inh	0	17	0	8	7	?	0	-8	?	?
DUX4 inh difference	-4	18	1	-5	2	.	1	-5	.	.
DUX4 inh control	3.4	-0.8	-0.8	13	4.7	.	-1.3	-2.2	.	.

[61] Cc1cccc(S(=O)(=O)N2[C@@H]3c4ccc(-c5ccccc5)c(=O)n4C[C@H]2[C@H](CO)[C@H]3C(=O)O)c1
[62] O=C1CNC[C@@H]2[C@@H](c3ccc(Br)cc3)[C@H](CO)N12
[63] COCC#Cc1ccc([C@H]2[C@H](CO)N3CCCCN(C(=O)Cc4ccccn4)C[C@@H]23)cc1
[64] COC(=O)[C@H]1[C@H](CO)[C@H]2Cn3c(ccc(-c4cccnc4)c3=O)[C@@H]1N2S(=O)(=O)c1ccccc1F
[65] CN(C)CC#Cc1ccc([C@H]2[C@@H](CO)N3CCCCN(C(=O)Cc4ccccn4)C[C@H]23)cc1
[66] COC(=O)[C@H]1[C@H](CO)[C@H]2Cn3c(ccc(-c4cccc(OC)c4)c3=O)[C@@H]1N2C(=O)c1ccccc1F
[67] COC(=O)[C@@H]1[C@@H](CO)[C@@H]2Cn3c(ccc(C4=CCCCC4)c3=O)[C@H]1N2C(=O)NC(C)C

Screen / compound no.	61	62	63	64	65	66	67
DUX4 inh	-4	9	13	10	9	-6	-9
DUX4 inh difference	-1	-1	8	2	-1	-2	-5
DUX4 inh control	-2.9	11	5.2	7.9	9.7	-4.0	-3.7

Assay outcomes deposited in PubChem by Broad Institute.
